Screening results as filed in PubChem.
Tgondii IFNg: inhibitors of Toxoplasma gondii growth with IFN-gamma; Toxoplasma gondii growth in IFN-gamma-treated host cells; hits give low values; reference of the scale not given here; activity change, negative = inhibition, %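 (about 20 µM by stock and volumes)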; 69,000 tested, 3.8% active; AID 1259416;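 active means below -70%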;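 further: host cells are HeLa cells infected with Toxoplasma gondii; parasite growth read as luciferase light; one replicate is shown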
Starred values were filed as active, the others as inactive.

COc1ccc(N2CCCC3(CN(C(=O)c4ccn[nH]4)CCO3)C2)cc1 (stereo unspecified) was read as Tgondii IFNg 10.1.
Cc1ccnc(NC(c2ccc(C)s2)c2ccc3cccnc3c2O)c1 (stereo unspecified) was read as Tgondii IFNg 45.5.
`COc1ccc2cc(C(=O)N3CCC[C@H]3[C@H](O)c3nc4ccccc4s3)[nH]c2c1` gave Tgondii IFNg -35.9.
`CC1(C(=O)NCc2ccc(F)cc2F)CCN(C(=O)c2c(F)cccc2F)CC1` gave Tgondii IFNg 16.7.
CCOC(=O)c1c(Cl)c(C(C)(C)C)nc(Sc2ccc(C)cc2)c1C#N was read as Tgondii IFNg 18.7.
Screening Cc1nc(-c2cn(CCN)nn2)n(-c2ccc3c(c2)CCC3)n1 returned Tgondii IFNg -0.3.
Screening OCc1ccc(-c2nccn2CCSc2cn[nH]n2)o1 returned Tgondii IFNg -48.9.
`COC[C@H]1CN(C)C[C@]12CCN(C(=O)c1ccc3ccccc3c1)C2` gave Tgondii IFNg -13.1.
Screening C=CCOC[C@H]1CNC(=O)[C@H]2CCN(C(=O)N(C)C)CC[C@@H]12 returned Tgondii IFNg 35.5.
Screening CCCNC(=O)N1[C@H](C#N)[C@H](c2ccc(C#Cc3cccc(F)c3)cc2)[C@H]1CO returned Tgondii IFNg -58.1.
Cc1oc(C2CCN(S(=O)(=O)c3ccc(F)cc3)CC2)nc1C(=O)N1CCCC1 was read as Tgondii IFNg -29.4.
COc1ccc(-c2csc(-c3cccnc3)n2)cc1C was read as Tgondii IFNg 184.4.
For Cc1ccc2c(-c3csc(NC(=O)C4(C)CCCO4)n3)c[nH]c2c1 (stereo unspecified) the results were Tgondii IFNg 377.6.
`N#C[C@H]1[C@@H](c2ccccc2)[C@@H](CO)N1C(=O)c1ccc2c(c1)OCO2` gave Tgondii IFNg -8.1.
Screening O=C(c1cc2n(n1)CCNC2)N(Cc1ccccn1)Cc1ccco1 returned Tgondii IFNg -6.1.
For CC(C)CC(NC(=O)C1Cc2ccccc2C1)c1nnc2n1CCNCC2 (stereo unspecified) the results were Tgondii IFNg 51.9.
For c1ccc(OC2COC3(CCN(Cc4cccs4)CC3)C2)cc1 (stereo unspecified) the results were Tgondii IFNg -33.2.
Screening c1ccc(-c2ncn(CC3CNCCO3)c2-c2cc3ccccc3[nH]2)cc1 (stereo unspecified) returned Tgondii IFNg 63.7.
Cc1ccsc1[C@@H]1CCN(C(=O)c2ccccc2-c2nn[nH]n2)C[C@H]1O was read as Tgondii IFNg 4.9.
Screening O=C(c1ccc(F)c(F)c1)N1C[C@@H]2COC[C@]2(COCC2CC2)C1 returned Tgondii IFNg -63.2.
For CC(=O)Oc1cc2c(s1)CCN(C(C(=O)C1CC1)c1ccccc1F)C2 (stereo unspecified) the results were Tgondii IFNg 32.4.
CCOC(=O)c1ncn2c1C(=O)OC2(C)C was read as Tgondii IFNg -5.5.
`Cn1nccc1-c1ccc2nc(C3CCNCC3)nn2c1` gave Tgondii IFNg -56.1.
`CN1CCC2(CN(C(=O)CCc3ccccc3)C2)OCC1C(=O)O` (stereo unspecified) gave Tgondii IFNg 23.3.
For S=C(NCc1ccccc1)NCc1ccccn1 the results were Tgondii IFNg 75.8.
Screening COc1ccc(S(=O)(=O)Nc2cccc3c2O[C@H](CN(C)CC2CCCCC2)[C@@H](C)CN([C@@H](C)CO)C3=O)cc1 returned Tgondii IFNg -41.0.
CC1(C)CC(C(CC(=O)N2CCCC2)Cc2ccccc2)CCO1 (stereo unspecified) was read as Tgondii IFNg -3.2.
CC1(C)CN(c2ccnc(C(=O)NCc3ccc4c(c3)OCO4)c2)CCO1 was read as Tgondii IFNg 10.0.
Cc1c(C(=O)Cn2cnc3nc4c(cc3c2=O)CC(C)CC4)c2ccccc2n1C (stereo unspecified) was read as Tgondii IFNg -17.7.
`COc1cc([N+](=O)[O-])ccc1NC(=O)N1CCC2(CC1)Nc1ccccc1-n1cccc12` gave Tgondii IFNg inactive.
COc1ccc(-c2cc(NC(C)C)ncn2)cn1 was read as Tgondii IFNg 39.6.
Screening O=C1C(=Nc2ccc(Cl)cc2)c2ccccc2N1CN1CCc2ccccc2C1 returned Tgondii IFNg 91.9.
For C[C@H](NC(=O)[C@@H]1[C@@H](CO)[C@@H]2Cn3c(cccc3=O)[C@H]1N2C(=O)C1CCC1)c1ccccc1 the results were Tgondii IFNg -10.3.
CCOC(=O)CNc1nc(C(C)(C)C)nc2c1cnn2C was read as Tgondii IFNg -3.5.
Screening CC1CNC(=O)CCN1Cc1ccc2cccc(Cl)c2n1 (stereo unspecified) returned Tgondii IFNg -2.1.
For Cc1ccccc1CNC(=O)c1nc(N2CCOCC2)c2ccccc2n1 the results were Tgondii IFNg -35.5.
`Cc1ccoc1C(=O)N(Cc1ccccn1)CC(C)C` gave Tgondii IFNg 93.8.
Screening O=C(CN1C(=O)CCc2cc(Br)ccc21)NCC1CCN(Cc2ccccc2F)CC1 returned Tgondii IFNg -42.9.
Screening Cc1nc(CCNC2CCN(S(C)(=O)=O)CC2)nc2c1CCCC2 returned Tgondii IFNg 2.4.
Screening CCc1nc(OCC(=O)NCc2ccc(F)cc2)c2ccccc2n1 returned Tgondii IFNg -0.9.
For Cc1ccc2c(c1)c(=O)c(C(=O)N(C)Cc1csc(C)n1)cn2C the results were Tgondii IFNg 6.8.
`CN(C)c1nc2c(c(=O)[nH]1)CCN(C(=O)C(c1ccccc1)c1ccccc1)C2` gave Tgondii IFNg -0.5.
Cc1nn(Cc2nc(-c3ccc(NC(=O)C4CCCC4)cc3)oc2C)c(C)c1C was read as Tgondii IFNg -24.4.
Screening O=C(NCCC(=O)N1[C@@H]2CC[C@H]1CC(O)C2)c1ccccc1F (stereo partly specified) returned Tgondii IFNg 0.4.
`CCN(CC)c1ccc(NC(=S)NC(=O)c2ccc(OC)cc2)cc1` gave Tgondii IFNg -9.7.
Screening CCOCC1CCC2(CCN(C(=O)C3CC=CC3)CC2)N1C (stereo unspecified) returned Tgondii IFNg -38.9.
CC[C@@H]1C/C=C\C[C@H](c2ccc(OC)cc2OC)NC(=O)[C@@H](C)CC(=O)N1 was read as Tgondii IFNg -2.4.
Screening Cc1cc(F)ccc1NC(=O)C(C)NC(=O)COc1cccnc1 (stereo unspecified) returned Tgondii IFNg 126.1.
`Cc1ccccc1-c1nc(Cn2nnc(C(=O)Nc3c(C)cccc3C)c2C)c(C)o1` gave Tgondii IFNg -38.6.
`CCn1c(C2CCN(Cc3cccc4nonc34)CC2)n[nH]c1=O` gave Tgondii IFNg 8.5.
`COc1ccc2c3c(n(C)c2c1)[C@@H](CO)N(CC1CC1)CC31CN(S(=O)(=O)c2cn(C)cn2)C1` gave Tgondii IFNg inactive.
Screening O=C(O)Cc1ccc(-n2cnnn2)cc1 returned Tgondii IFNg 5.6.
`O=c1cc(C(F)(F)F)nc2c(-c3ccccc3)c(C(F)(F)F)[nH]n12` gave Tgondii IFNg -12.5.
`CC(C)Nc1ncc2c(c1C(=O)O)CCN(S(=O)(=O)C1CC1)C2` gave Tgondii IFNg -1.5.
CS(=O)(=O)N1[C@H](C#N)[C@H](c2ccc(C#Cc3cccc(F)c3)cc2)[C@H]1CO was read as Tgondii IFNg 44.6.
For COc1cccc(CNC(=O)c2nc3c(o2)CN(C(=O)c2cccc(F)c2)C3)c1 the results were Tgondii IFNg 56.6.
For O=C(CCNc1ccc(Cl)c(F)c1)c1cccs1 the results were Tgondii IFNg 67.5.
`COc1ccc(C2=NC3(CCN(C(C)=O)CC3)NC(c3cc(Cl)ccc3O)C2)cc1` (stereo unspecified) gave Tgondii IFNg -62.1.
For COc1ccc(C(=O)N(c2ccc(F)cc2)C2(C(=O)NCc3ccccc3)CCN(C(C)=O)CC2)cc1 the results were Tgondii IFNg -4.5.
`CCOc1cc(OCC)cc(C(=O)Nc2ccc(Cc3ccncc3)cc2)c1` gave Tgondii IFNg -60.7.
O=c1[nH]nc(SCc2cccc(Oc3ccccc3)c2)c(=S)[nH]1 was read as Tgondii IFNg 11.8.
Screening O=C(c1ccc(-c2cccc3ccnn23)cc1)C1CC1 returned Tgondii IFNg 68.7.
For Cc1n[nH]c(C)c1Cc1nc(CC2CCN(C)CC2)no1 the results were Tgondii IFNg -4.5.
`O=C(CCc1cccnc1)N1Cc2cnn(CCO)c2C1` gave Tgondii IFNg 9.3.
Fc1ccc(C2=NNC3=NCCN3C2)cc1F was read as Tgondii IFNg -21.1.
Screening CN(C)C(=O)CN1CCO[C@H]2CN(C(=O)c3cnccn3)C[C@@H]21 returned Tgondii IFNg 53.0.
`Cc1ccc2c(n1)N(CCn1cccn1)CCN(C(=O)NC(C)C)C2` gave Tgondii IFNg 32.7.
For C[C@@H]1CCCCO[C@H](CN(C)S(=O)(=O)c2cn(C)cn2)[C@H](C)CN([C@H](C)CO)C(=O)c2cc(N(C)C)ccc2O1 the results were Tgondii IFNg 449.0.
CCN(CC)CCOCCOC(=O)C(CC)(CC)c1ccccc1 was read as Tgondii IFNg 23.4.
For Cc1cccc(-c2nc(C)c(CCNS(=O)(=O)c3ccc4ccccc4c3)s2)c1 the results were Tgondii IFNg 444.4.
For CCc1cnc(-c2cccc(O)c2)nc1 the results were Tgondii IFNg 17.1.
O=c1c2cccc3cccc(sc4cccc5cccc1c54)c32 was read as Tgondii IFNg -45.2.
Screening O=C(O)c1cccc(CSc2cccs2)c1 returned Tgondii IFNg 138.5.
Screening COc1ccccc1CN1[C@H](CO)[C@H]2c3ccccc3N(C(=O)c3cccnc3)C[C@H]21 returned Tgondii IFNg -5.1.
For CNC[C@H]1Oc2ccc(NC(=O)NC3CCCCC3)cc2CC(=O)N([C@H](C)CO)C[C@@H]1C the results were Tgondii IFNg 0.6.
For Cc1noc(CN(C)C(=O)C2CCCCN2Cc2ccccc2)n1 (stereo unspecified) the results were Tgondii IFNg -4.3.
Cc1ccc(S(=O)(=O)NC(=O)Nc2nc(-c3ccc(C)c(Cl)c3)c(C)s2)cc1 was read as Tgondii IFNg -2.3.
Screening CN(C[C@H]1[C@@H](c2ccccc2)[C@H](CO)N1Cc1ccccn1)S(C)(=O)=O returned Tgondii IFNg 14.7.
Screening CN1C2(CCN(Cc3nccs3)C2)c2ccccc2S1(=O)=O (stereo unspecified) returned Tgondii IFNg 29.9.
For O=C(CCN[C@H]1c2ccccc2C[C@H]1O)Nc1nnc(C2CC2)s1 the results were Tgondii IFNg 9.5.
For COc1cc(-c2cccc(C(C)N3CCCC3)c2)cc2cc(C(=O)O)oc12 (stereo unspecified) the results were Tgondii IFNg 101.8.
Cc1ccccc1-c1nc(Cn2ccn3nc(-c4ccccc4)cc3c2=O)c(C)o1 was read as Tgondii IFNg -29.2.
`CCOc1ccc2oc(C)c(C(=O)N3CCc4c(nc(C)[nH]c4=O)C3)c2c1` gave Tgondii IFNg -2.5.
CCc1ccc(NC(=O)C(=O)NCCc2csc(-c3ccc(C(F)(F)F)cc3)n2)cc1 was read as Tgondii IFNg 187.7.
`Cc1nc2n(n1)CCN(C(=O)c1cnn3cccnc13)C2` gave Tgondii IFNg -0.4.
For O=S(=O)(Cc1ccc(Cl)cc1)NCc1cccs1 the results were Tgondii IFNg -48.5.
`C[C@@H]1CN([C@@H](C)CO)C(=O)CCCn2nncc2CO[C@H]1CN(C)C(=O)c1ccc(N2CCN(C)CC2)cc1` gave Tgondii IFNg -87.0*.
`O=C(C[C@@H]1CC[C@H]2[C@@H](COC[C@H](O)CN2C(=O)Nc2cccc(F)c2)O1)NCCCN1CCOCC1` gave Tgondii IFNg 9.0.
Screening O=C1CC(c2cccc(OCc3ccccn3)c2)c2c(nc3ccccn23)CN1 (stereo unspecified) returned Tgondii IFNg 2.8.
`Cc1noc(C)c1CN1CCO[C@@H]2[C@H]1CC[C@H]2Oc1ncccc1F` gave Tgondii IFNg -3.8.

Continued; it opens with the 3 that closed the last part.
`O=C(C[C@@H]1CC[C@H]2[C@@H](COC[C@H](O)CN2C(=O)Nc2cccc(F)c2)O1)NCCCN1CCOCC1` gave Tgondii IFNg 9.0.
Screening O=C1CC(c2cccc(OCc3ccccn3)c2)c2c(nc3ccccn23)CN1 (stereo unspecified) returned Tgondii IFNg 2.8.
`Cc1noc(C)c1CN1CCO[C@@H]2[C@H]1CC[C@H]2Oc1ncccc1F` gave Tgondii IFNg -3.8.
COc1ccc(Nc2nc(-c3nnc(-c4ccc(F)cc4)o3)nc3ccccc23)c(OC)c1 was read as Tgondii IFNg 127.9.
`CCCN1C[C@@H](C)[C@H](OC)CN(C)C(=O)c2cc(NC(=O)C3CCC3)ccc2OC[C@@H]1C` gave Tgondii IFNg 43.6.
Screening c1ccc2c3nnc4n(c-3nc2c1)CCS4 returned Tgondii IFNg -61.5.
Screening COc1ccc(-c2nc(NCCN3CCCc4ccccc43)c3ccccc3n2)cc1 returned Tgondii IFNg -39.0.
Screening COc1ccc(C)cc1Nc1nc(-c2ccc(Cl)cc2)nc2ccccc12 returned Tgondii IFNg 29.0.
Screening COCc1nc(C)c(CNC(=O)c2scc3c2CCCC3)s1 returned Tgondii IFNg -46.6.
Cc1ccc(S(=O)(=O)N2CCC3(CC2)NCCN=C3NCc2ccccc2F)c(C)c1 was read as Tgondii IFNg -9.0.

An excerpt from above in order of formula weight, falling.
`CCCN1C[C@@H](C)[C@H](OC)CN(C)C(=O)c2cc(NC(=O)C3CCC3)ccc2OC[C@@H]1C` gave Tgondii IFNg 43.6.
Cc1ccc(S(=O)(=O)N2CCC3(CC2)NCCN=C3NCc2ccccc2F)c(C)c1 was read as Tgondii IFNg -9.0.
COc1ccc(Nc2nc(-c3nnc(-c4ccc(F)cc4)o3)nc3ccccc23)c(OC)c1 was read as Tgondii IFNg 127.9.
Screening COc1ccc(C)cc1Nc1nc(-c2ccc(Cl)cc2)nc2ccccc12 returned Tgondii IFNg 29.0.

3 consecutive entries from above, quoted:
Cc1c(C(=O)Cn2cnc3nc4c(cc3c2=O)CC(C)CC4)c2ccccc2n1C (stereo unspecified) was read as Tgondii IFNg -17.7.
`COc1cc([N+](=O)[O-])ccc1NC(=O)N1CCC2(CC1)Nc1ccccc1-n1cccc12` gave Tgondii IFNg inactive.
COc1ccc(-c2cc(NC(C)C)ncn2)cn1 was read as Tgondii IFNg 39.6.

Only part of the results is shown (hit frequency here may not be typical).
